# Bead autofluor: compound fluorescence in toxin protease inhibitor counterscreen; compound autofluorescence counterscreen, microsphere flow cytometry; active compounds read high; fluorescence intensity (test concentration not listed); 360,000 tested, 3.1% active; AID 624483;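 active = at least 3 SD above the mean of all compounds, about 16000 in these data; inconclusive = too few beads counted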;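 note: 100 nL of 1 mM stock went into each well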
# Mtb hypoxia rep: inhibitors of hypoxia-regulated fluorescent reporter in Mycobacterium tuberculosis; M. tuberculosis hypoxia-regulated fluorescent reporter, fluorescence; fluorescence inhibition, % (concentration not given with the values); 300,000 tested, 0.1% active; AID 1159583;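 active = 35 to 45% if threefold the growth effect, above 45% if 1.5-fold the growth effect; inactive = the rest, general growth blockers included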;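 note: wells of about 50 µL received 100 nL stock; 0% = vehicle wells and 100% = reference inhibitor wells; whole bacteria with a GFP reporter of the hypoxia response; strong numbers were not always called active; many hits fall short of the cut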
# PrP UTR inh: inhibition of PrP 5' UTR reporter expression | cell-based PrP 5' UTR mRNA reporter, plate reader | inhibition, % (test concentration not listed) | 340,000 tested, 0.35% active | AID 488862;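 active = every replicate at 50% or more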;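 note: 0 = median of the neutral control wells; tested in H4 reporter cells; numbers are from one replicate; inactives centre near -14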
# BJeLR lethal: BJeLR cell viability loss. BJeLR (HRASV12) viability, CellTiter-Glo ATP luminescence, 48 h; reference of the scale not given here. inhibition, % (no concentration beside the values). 300,000 tested, 0.17% active. AID 1554;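 active = replicate mean above 50%; inconclusive = above 50% but judged a plate artefact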;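 note: 50 nL library stock added to about 25 µL; numbers are from one replicate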
# RN4220 kill: S. aureus RN4220 growth inhibition. inhibition, % (concentration not given with the values). 330,000 tested, 0.33% active. AID 1259311. OD600, 16 h;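 active = z-score of -3 or lower and OD600 up to 0.18 on both plates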;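 note: plate controls were untreated cells for no effect and reference antibiotic for full effect; stock transfer was 100 nL into about 80 µL; one replicate is shown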
# ugtP null kill: kills S. aureus RN4220 lacking UgtP; growth inhibition, % (concentration not given with the values); S. aureus RN4220 ugtP deletion, OD600 growth, 16 h; some inactives read as strong as hits; AID 1259309; 330,000 tested, 0.54% active;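 active = z-score under -3 and OD600 up to 0.15 on both plates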;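 note: plate controls were untreated wells for no effect and antibiotic for full effect; wells of about 80 µL received 100 nL stock; the first replicate is given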
# Mtb hypoxia rep growth: second read-out of Mtb hypoxia rep, no call of its own (marks repeat the call); growth inhibition, %; measured here: M. tuberculosis growth (absorbance);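 0% = vehicle and 100% = reference antibiotic; read after six days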
# An asterisk follows results filed as active; ? = inconclusive; / = not tested or not shown.
# Sample of the layout:
smiles	Bead autofluor	Mtb hypoxia rep	Mtb hypoxia rep growth	PrP UTR inh	BJeLR lethal	RN4220 kill	ugtP null kill
CC(C)(C)c1cc(NC(=O)c2cccc([N+](=O)[O-])c2)no1	3895	13	8	-97	7	3.1	8
CCCN(CCC)Cc1c(C(=O)NN=Cc2ccsc2)nnn1-c1nonc1N	/	4	-9	/	/	3.8	-2
CCOc1ccc(-c2nc(S(=O)(=O)c3ccccc3)c(N3CCC(C(N)=O)CC3)o2)cc1	4302	-2	-1	-17	-17	1.2	4

# The list itself, previewed entries included:
smiles	Bead autofluor	Mtb hypoxia rep	Mtb hypoxia rep growth	PrP UTR inh	BJeLR lethal	RN4220 kill	ugtP null kill
CC(C)(C)c1cc(NC(=O)c2cccc([N+](=O)[O-])c2)no1	3895	13	8	-97	7	3.1	8
CCCN(CCC)Cc1c(C(=O)NN=Cc2ccsc2)nnn1-c1nonc1N	/	4	-9	/	/	3.8	-2
CCOc1ccc(-c2nc(S(=O)(=O)c3ccccc3)c(N3CCC(C(N)=O)CC3)o2)cc1	4302	-2	-1	-17	-17	1.2	4
CCCCn1c(=O)c(C(=O)Nc2ccsc2C(=O)OC)c(O)c2ccccc21	2092	9	3	3	1	1.1	9
CCOC(=O)C1(Cc2ccc(OC)cc2)CCN(C(=O)CCN2CCCC2=O)CC1	4228	11	-4	-15	7	4.4	-3
CCOC(=O)C1=C(COC(=O)C2(C)CC2(Cl)Cl)NC(=O)NC1c1ccccc1 (configuration not stated)	4401	-2	-2	-22	19	3.6	-8
O=C(Nc1ccccc1)N(Cc1cccnc1)Cc1ccco1	8403	16	6	15	2	2.7	4
COc1ccc(N(C)C(=O)c2ccc3c(c2)nnn3C)cc1	4567	1	-6	-21	-8	-0.3	3
CCCc1cc(C(=O)Nc2c(C)n(C)n(-c3ccccc3)c2=O)no1	4238	7	9	-3	-1	-3.8	25
Cc1ccccc1-c1nnn(CC(=O)NCc2ccc3c(c2)OCO3)n1	21659*	5	12	-22	-6	-2.8	-5
CCOC(=O)C(O)(C1C(=O)CC(C)(C)CC1=O)C(F)(F)F (configuration not stated)	4580	/	/	-18	6	92	47
CCOC(=O)c1ccc(CNC(=O)CSc2nnc(-c3ccncc3)o2)cc1	1984	1	4	3	-9	2.7	1

# (list continues)
smiles	Bead autofluor	Mtb hypoxia rep	Mtb hypoxia rep growth	PrP UTR inh	BJeLR lethal	RN4220 kill	ugtP null kill
CC(C)Cc1cc(C(=O)N2CCC(N3CCC(C(=O)N4CCOCC4)CC3)CC2)n[nH]1	2285	8	7	-3	6	2.5	3
O=C(CCCc1nc2ccccc2s1)NC1CCOC1=O (configuration not stated)	2204	9	7	-13	-3	7.0	-1
O=S1(=O)CC(O)C(Nc2ccccc2Cl)C1 (configuration not stated)	4552	15	11	-3	2	-2.2	2
Cc1ccccc1-n1c(=O)n(CCc2ccccc2)c(=O)c2[nH]cnc21	4489	7	8	7	7	12	21
Cc1nnc(SCC(=O)N2CCN(Cc3ccccc3)CC2)s1	10928	3	4	-20	4	-1.0	3
COC(=O)C1C(=O)C2=C(CC1C)NC(C)=C(C(=O)OC(C)C)C2c1ccc(C)o1 (configuration not stated)	23601*	9	5	-15	15	9.8	0
Cc1c(C(=O)Nc2ccc(C(=O)O)cc2)cnn1C	2595	9	-7	-20	-9	4.0	-5
CCCN1CCC[C@@H]2Cc3[nH]ncc3C[C@H]21	5527	/	/	-18	11	/	/
Cc1ccc(-c2csc3ncnc(N4CCN(c5ccccc5O)CC4)c23)cc1	6415	-5	-8	-18	-5	0.1	-10
COc1ccc(CCNc2nc(=S)[nH]c3cc(OC)c(OC)cc23)cc1OC	2634	0	9	-3	2	5.7	11
CC(=O)Nc1c(C(=O)c2ccc(F)cc2)oc2ccccc12	9026	3	9	-13	1	8.1	-2
Cc1ccc(NC(=O)CN(C)S(=O)(=O)c2cnc[nH]2)cc1C	?	5	5	-14	-10	-1.2	-1

# Other records
smiles	Bead autofluor	Mtb hypoxia rep	Mtb hypoxia rep growth	PrP UTR inh	BJeLR lethal	RN4220 kill	ugtP null kill
COc1ccc(S(N)(=O)=O)cc1C(=O)OCC1CCCCC1	3634	10	6	-16	-5	4.0	16
COc1ccc(-c2nc(CN3CCC(c4ccccc4)CC3)c(C)o2)cc1OC	6223	-2	-13	-13	-3	-0.8	60
Cc1ccc2nc(NCC(=O)NN)nc(-c3ccccc3)c2c1	2881	0	0	-13	-1	1.5	-2
Cc1ccc(N2C(=O)C3C4C=CC(C4)C3C2=O)cc1 (configuration not stated)	2848	9	11	-44	4	-11	-2
Cc1cccc(C)c1NC(=S)NCc1ccccc1	3900	3	11	-25	-13	2.6	7
Cc1cccc(OCc2n(CC(=O)OC3CC(C)CCC3C(C)C)c3ccccc3[n+]2C)c1 (configuration not stated)	4818	/	/	-22	12	/	/
COc1ccc(S(=O)(=O)N2CCc3ccccc32)cc1OC	/	4	-6	6	-2	2.9	1
Nc1nc(SCC(=O)NCc2ccccc2)[nH]c(=O)c1NC(=O)c1ccccc1F	2418	2	-4	-16	-15	1.9	5
COc1ccc(NC(=O)N2CCC(CO)(CC3CCCCO3)CC2)c(OC)c1 (configuration not stated)	3830	7	7	-4	-6	2.0	-1
Cc1cccc(N2CCN(C(=O)c3ccc(Cl)c(S(=O)(=O)N4CCc5ccccc5C4)c3)CC2)c1C	2416	/	/	-30	7	-1.1	1
Cc1ccc(NC(=O)c2cccc(C(=O)Nc3ccc(C)cc3C(=O)O)c2)c(C(=O)O)c1	3181	-3	-4	-5	0	15	3
CCc1cc(=O)oc2cc(C)cc(OCC(=O)N3CCC(C(=O)O)CC3)c12	5966	/	/	-43	-6	6.3	-1

# Continued.
smiles	Bead autofluor	Mtb hypoxia rep	Mtb hypoxia rep growth	PrP UTR inh	BJeLR lethal	RN4220 kill	ugtP null kill
CC(c1ccccc1)C1CC(=O)N(Cc2ccco2)C1=O (configuration not stated)	9249	5	9	-35	4	4.0	2
C=C(C)COc1ccc(-c2n[nH]c(C)c2Oc2ccccc2OC)c(O)c1	2290	/	/	-1	1	/	/
CCCC1=NN(c2ccc([N+](=O)[O-])cc2)C(=O)/C1=C/N(C)C	2438	4	-4	-19	0	7.5	3
CNC(=O)CSCCn1c(SCC(=O)NC)nc2ccccc2c1=O	4037	9	3	-6	12	0.6	0
COc1ccc(N2CCN(C(=O)CSc3nnc4c(C)cc5ccc(C)c(C)c5n34)CC2)cc1	21530*	5	6	-36	4	0.0	-8
Cn1cc(Br)c(C(=O)Nc2ncc(Br)s2)n1	2695	0	-2	-77	-4	6.6	5
CCN1CCN(c2c(Cl)cccc2NC(=O)c2cccs2)CC1	6178	-1	9	-10	-4	3.4	0
Cc1ccsc1C(=CCCN1CCCC(C(=O)O)C1)c1sccc1C (configuration not stated)	/	-2	-1	/	/	9.3	5
CC(=O)Nc1ccc(S(=O)(=O)N2CCC(=O)Nc3ccccc32)cc1	4420	4	10	-18	-2	5.2	9
CCOc1ccc(CCNS(=O)(=O)c2cn(C)cn2)cc1OCC	5788	-9	1	10	0	-0.6	-6
O=C(c1cnccn1)N1CCN(S(=O)(=O)c2cccc(Cl)c2)CC1	3624	19	14	-11	/	6.5	-3
CS(=O)(=O)N(CC(=O)Nc1ccccc1C(=O)N1CCCC1)c1cccc([N+](=O)[O-])c1	4377	16	2	-26	0	7.3	0

# (further entries)
smiles	Bead autofluor	Mtb hypoxia rep	Mtb hypoxia rep growth	PrP UTR inh	BJeLR lethal	RN4220 kill	ugtP null kill
COc1ccc(C(NC(=O)CN2C(=O)NC3(CCc4ccccc43)C2=O)c2ccccc2)cc1 (configuration not stated)	5834	-12	-2	3	/	-1.3	6
Cc1cccn2c(=O)c(/C=C(\C#N)C(N)=O)c(N3CCN(c4ccccc4)CC3)nc12	4119	1	-6	-19	13	0.6	-17
Cc1cc2ncn(CCC(=O)NC3CCCC3)c2cc1C	4205	-2	-4	-21	-5	2.6	0
CSc1ccc(CN(C)Cc2cc(=O)oc3c(C)c(C)ccc23)cc1	2982	3	-2	-13	-8	4.7	17
S=C(NCc1ccccn1)Nc1cccc(Cl)c1	2207	5	5	-28	-1	5.9	-12
O=C1Cc2cccc3cccc1c23	8218	13	7	-17	-1	0.9	0
Cc1nn(C)c(C(=O)Sc2cccc(Cl)c2)c1[N+](=O)[O-]	4175	5	12	-14	8	27	93*
CC(=NNC(N)=S)C1=CCC2C3CC[C@H]4CC(O)CC[C@]4(C)C3CC[C@]12C (some centres not stated)	/	17	1	/	/	2.2	9
CCN(CC)S(=O)(=O)c1ccc(N2CCOCC2)c(NCC(=O)Nc2ccc(F)cc2)c1	3435	-2	3	-3	8	3.5	6
Cc1cc(-n2c(C)cc(C(=O)CSc3ccc4c(c3)OCCO4)c2C)no1	4016	8	10	1	3	2.3	40
Cc1c(CC(=O)N2C[C@H]3C[C@@H](C2)c2cccc(=O)n2C3)c(=O)oc2cc(O)c(Cl)cc12	4195	/	/	-25	-5	0.3	0
CC1=CCC(C(=O)O)(C(=O)NN=Cc2cccs2)C(c2ccc(F)cc2)C1 (configuration not stated)	/	11	-1	/	/	1.9	9

# (further entries)
smiles	Bead autofluor	Mtb hypoxia rep	Mtb hypoxia rep growth	PrP UTR inh	BJeLR lethal	RN4220 kill	ugtP null kill
O=C(Nc1ccccc1Oc1cccnc1)C1CCCN(Cc2cccc(Cl)c2)C1 (configuration not stated)	5260	/	/	-4	2	/	/
CC(C)CC(NC(=O)OC(C)(C)C)c1cn(C(CCC(=O)OC(C)(C)C)C(=O)N2CCN(C(=O)OC(C)(C)C)CC2)nn1 (configuration not stated)	/	3	6	/	/	4.9	-4
CCOC(=O)C1CCN(Cc2ccc(OC)cc2OC)CC1	4278	9	7	-1	-7	-0.8	8
O=C(c1ccc([N+](=O)[O-])cc1)N1CCN(Cc2ccccc2)CC1	2224	3	1	-46	7	2.7	8
O=C(NC1CCCCCC1)c1ccc(OCC2CCCO2)cc1 (configuration not stated)	2101	-4	2	-36	6	0.7	-6
CCOc1ccccc1C(=O)NCC(=O)OCC(=O)NCCc1ccc(S(N)(=O)=O)cc1	2151	/	/	0	3	2.6	-1
Cc1ccc(C)c(NS(=O)(=O)c2cc(C(=O)NCCC3=CCCCC3)ccc2C)c1	4346	8	0	-27	4	-0.9	-26
CCN1CCc2c(OCC(=O)N3CCCc4ccccc43)cccc2C1=O	3243	-6	2	-7	-4	3.8	3
Cc1ccc(OP2(=O)Nc3cc(C)c(C)cc3S2)cc1 (configuration not stated)	3774	2	15	-7	/	-3.5	1
Cc1cc(C)cc(CSCC(=O)NN=Cc2ccc(OCC(=O)NCc3ccco3)cc2)c1	/	-1	10	/	/	1.0	-23
Cc1oc(C)c2c(=O)ccc3c(c12)OC(N)=C(C#N)C3c1ccccc1 (configuration not stated)	4865	/	/	-12	0	0.0	-8
COc1cccc(/C=C/C(=O)N(C)CC(=O)Nc2ccc(Cl)c(C(F)(F)F)c2)c1	/	-9	0	-19	0	0.2	-5

# (cont.)
smiles	Bead autofluor	Mtb hypoxia rep	Mtb hypoxia rep growth	PrP UTR inh	BJeLR lethal	RN4220 kill	ugtP null kill
CCCCn1c(-c2ccc(Cl)c(Cl)c2)nc2cc3[nH]c(=O)c(C(C)C)nc3cc21	3002	10	13	-37	-8	0.3	-1
CCOc1ccc(CC(=O)N2CCC3(CC2)NCCc2[nH]cnc23)cc1	5610	5	6	-9	-5	1.1	4
CCN1CCc2c(sc(NC(=O)Nc3ccc(Cl)c(Cl)c3)c2C(N)=O)C1	3671	-28	10	-18	/	7.0	-34
Clc1cc(Cl)cc(C2=NC(Cc3ccccc3)CO2)c1 (configuration not stated)	2920	7	6	-14	-9	0.7	2
OC[C@@H](O)C1OC2NC(=S)OC2C1O (some centres not stated)	4555	/	/	-9	11	/	/
CCOC(=O)c1sc(=NC(=O)c2ccc(C)cc2)n(C)c1C	3982	6	15	-36	0	2.8	4
O=C(NCc1nc2ccccc2[nH]1)C1=C[C@@H](c2ccccc2)C[C@@H](OCc2ccc(CO)cc2)O1	4316	/	/	-22	0	/	/
CCOC(=O)c1ccc(S(=O)(=O)NCCN2CCOCC2)cc1	4651	7	6	-30	12	1.0	0
CCOC(=O)c1c(C)[nH]c(C(=O)OCC(=O)Nc2ccc(OCC)cc2)c1C	8343	5	5	8	-4	5.4	0
Cc1cc(C)nc(N2CCCC(C(=O)Nc3nnc(C)s3)C2)n1 (configuration not stated)	7621	2	5	-21	0	4.9	8
Cc1ccc(-n2c(O)c(C=NC3CCS(=O)(=O)C3)c3ccccc3c2=O)cc1C (configuration not stated)	7713	17	7	-24	-4	28	8
CC(C)c1ccc(/C=C/C(=O)Nc2nncs2)cc1	1974	-2	5	-91	3	5.1	6

# Screening data (PubChem)
